NOMO-1 viab: STK33 inhibitor candidate reducing NOMO-1 cell viability; inhibition, % (test concentration not listed); actives 7.5% (n = 37,000); NOMO-1 AML viability, CellTiter-Glo luminescence, 72 h;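 active = most replicates above 80%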;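 note: wells of about 30 µL received 25 nL stock; 0% = median of vehicle wells and 100% = reference inhibitor level; the first replicate is given; inactives centre near 10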
Numbers without * were called inactive. An excerpt. The share of hits here may be higher or lower than overall.

Results for C[C@H](CO)N1C[C@H](C)[C@@H](CN(C)Cc2ccc(C(=O)O)cc2)Oc2c(NC(=O)Nc3ccc(C(F)(F)F)cc3)cccc2C1=O ?
NOMO-1 viab: 21

How did C[C@@H]1CN([C@H](C)CO)C(=O)c2cccc(NS(=O)(=O)c3cccs3)c2O[C@H]1CN(C)C do in these assays?
NOMO-1 viab: 36

How did C[C@H]1CN([C@@H](C)CO)C(=O)c2cccc(NC(=O)c3nc4ccccc4s3)c2O[C@H]1CN(C)Cc1ccncc1 do in these assays?
NOMO-1 viab: 43

Results for COc1ccc2c(c1O)CN(C)CCc1cc3c(cc1C(=O)C2)OCO3 ?
NOMO-1 viab: 14

How did O=C1C2CC3CC1CC(C(=O)O)(C3)C2 do in these assays?
NOMO-1 viab: 21

Results for CC(C)NC(=O)Nc1ccc2c(c1)CC(=O)N([C@@H](C)CO)C[C@H](C)[C@@H](CN(C)C(=O)Nc1cccc3ccccc13)O2 ?
NOMO-1 viab: -1

How did C[C@@H]1CN([C@@H](C)CO)C(=O)c2cccc(NC(=O)Nc3ccc4c(c3)OCO4)c2O[C@@H]1CN(C)C(=O)Nc1ccccc1 do in these assays?
NOMO-1 viab: -9

How did [O-][n+]1onc2c1CCc1c-2nc(-c2ccco2)n1O do in these assays?
NOMO-1 viab: -7

What do the screens show for `C[C@H](CO)N1C[C@H](C)[C@H](CN(C)Cc2ccc(C(=O)O)cc2)Oc2ccc(NS(=O)(=O)c3cccs3)cc2CC1=O`?
NOMO-1 viab: 7

How did CNC[C@@H]1Oc2ccc(NS(=O)(=O)c3ccc(C)cc3)cc2CC(=O)N([C@H](C)CO)C[C@H]1C do in these assays?
NOMO-1 viab: 8

The final 3 compounds of the part above come first, to join the parts.
How did [O-][n+]1onc2c1CCc1c-2nc(-c2ccco2)n1O do in these assays?
NOMO-1 viab: -7

What do the screens show for `C[C@H](CO)N1C[C@H](C)[C@H](CN(C)Cc2ccc(C(=O)O)cc2)Oc2ccc(NS(=O)(=O)c3cccs3)cc2CC1=O`?
NOMO-1 viab: 7

How did CNC[C@@H]1Oc2ccc(NS(=O)(=O)c3ccc(C)cc3)cc2CC(=O)N([C@H](C)CO)C[C@H]1C do in these assays?
NOMO-1 viab: 8

How did Cc1ccc(-n2nnnc2SCC(=O)Nc2c(C)n(C)n(-c3ccccc3)c2=O)cc1 do in these assays?
NOMO-1 viab: -1

Results for Cc1ccnc(NC(c2ccccn2)c2ccc3ccc(C)nc3c2O)c1 (configuration not stated) ?
NOMO-1 viab: 116*

What do the screens show for `Cc1ccc(NC(=O)c2cccc(NC(=O)CCC(=O)O)c2)cc1C`?
NOMO-1 viab: 25

What do the screens show for `C[C@@H]1CN([C@@H](C)CO)C(=O)c2cc(NC(=O)CCC(F)(F)F)ccc2O[C@H]1CN(C)S(=O)(=O)c1ccc(F)cc1`?
NOMO-1 viab: 7

How did COC(=O)Cc1c(C)c2c(OCC(N)=O)cc(C)cc2oc1=O do in these assays?
NOMO-1 viab: 28

Results for CCOC(=O)CSc1nc(N)c2c3c(sc2n1)COC(C)(C)C3 ?
NOMO-1 viab: 105*

Results for O=C(COc1ccc([N+](=O)[O-])cc1)Nc1ccc2oc(-c3ccc(Br)cc3)nc2c1 ?
NOMO-1 viab: -9

What do the screens show for `COC(=O)NC(Nc1ccccc1C(F)(F)F)C(=O)c1ccccc1` (configuration not stated)?
NOMO-1 viab: 25

What do the screens show for `C[C@H](CO)N1C[C@H](C)[C@H](CN(C)Cc2ccc(Oc3ccccc3)cc2)Oc2ccc(NC(=O)Cc3cn(C)c4ccccc34)cc2CC1=O`?
NOMO-1 viab: 69

How did C[C@@H]1CCCCO[C@@H](CN(C)C)[C@@H](C)CN([C@H](C)CO)C(=O)c2cc(NC(=O)c3ccncc3)ccc2O1 do in these assays?
NOMO-1 viab: 18

Results for C[C@@H]1CN([C@@H](C)CO)C(=O)Cc2cc(NS(=O)(=O)c3cccs3)ccc2O[C@@H]1CN(C)Cc1ccncc1 ?
NOMO-1 viab: 9

Results for COC(=O)c1ccc(OCC(=O)Nc2ccsc2C(=O)OC)cc1 ?
NOMO-1 viab: -1

Results for C[C@@H]1CCCCO[C@@H](CN(C)C(=O)c2ccncc2)[C@@H](C)CN([C@H](C)CO)C(=O)c2cc(NC(=O)CCC(F)(F)F)ccc2O1 ?
NOMO-1 viab: -19

Results for COc1ccc(CN(C)C[C@@H]2Oc3c(NS(=O)(=O)c4ccc(F)cc4)cccc3C(=O)N([C@@H](C)CO)C[C@@H]2C)cc1 ?
NOMO-1 viab: -7

What do the screens show for `Cc1cc(C2(c3cc(C)c(N)c(C)c3)CCCCC2)cc(C)c1N`?
NOMO-1 viab: 122*

How did COc1ccc(S(=O)(=O)Nc2ccc3c(c2)CC(=O)N([C@@H](C)CO)C[C@H](C)[C@H](CN(C)C(=O)Nc2ccc(F)cc2)O3)cc1 do in these assays?
NOMO-1 viab: -8

What do the screens show for `COc1ccc(S(=O)(=O)N(C)C[C@@H]2Oc3ccc(NC(=O)Cc4ccccc4)cc3C(=O)N([C@@H](C)CO)C[C@@H]2C)cc1`?
NOMO-1 viab: 10

What do the screens show for `COC(=O)c1ccc(NC(=O)CSc2nncc3ccccc23)cc1`?
NOMO-1 viab: 15

How did C[C@H](CO)N1C[C@H](C)[C@H](CN(C)S(=O)(=O)c2ccc(F)cc2)Oc2ccc(NC(=O)NC3CCCCC3)cc2CC1=O do in these assays?
NOMO-1 viab: 36

What do the screens show for `C[C@H]1CN([C@@H](C)CO)C(=O)c2cc(NC(=O)Nc3ccc4c(c3)OCO4)ccc2O[C@H]1CN(C)C(=O)Nc1ccccc1`?
NOMO-1 viab: -6

What do the screens show for `O=c1c2ccccc2nc(CSc2nnc3c4ccccc4nc(-c4ccccc4)n23)n1-c1ccccc1F`?
NOMO-1 viab: -29

Results for C[C@H]1CN([C@@H](C)CO)C(=O)Cc2cc(NC(=O)Nc3ccc(C(F)(F)F)cc3)ccc2O[C@@H]1CN(C)S(=O)(=O)c1ccc(F)cc1 ?
NOMO-1 viab: 69

How did COc1ccccc1C1=NOC(Cn2c(NCc3ccccc3)nc3c2c(=O)n(C)c(=O)n3C)C1 (configuration not stated) do in these assays?
NOMO-1 viab: -5

What do the screens show for `Cc1noc(C)c1NC(=O)N(C)C[C@H]1Oc2ccc(NC(=O)CCCN(C)C)cc2C(=O)N([C@@H](C)CO)C[C@@H]1C`?
NOMO-1 viab: 20

What do the screens show for `CC(C)NC(=O)Nc1ccc2c(c1)C(=O)N([C@@H](C)CO)C[C@H](C)[C@H](CN(C)S(=O)(=O)c1ccc(F)cc1)O2`?
NOMO-1 viab: -1

How did C[C@@H]1CCCCO[C@@H](CN(C)C(=O)CCC(F)(F)F)[C@@H](C)CN([C@H](C)CO)C(=O)c2cc(NC(=O)CCC(F)(F)F)ccc2O1 do in these assays?
NOMO-1 viab: 26

Results for C[C@@H]1CN([C@@H](C)CO)C(=O)c2cccc(NC(=O)NC3CCCCC3)c2O[C@H]1CN(C)Cc1ccncc1 ?
NOMO-1 viab: 3

What do the screens show for `O=[N+]([O-])c1cccc(S(=O)(=O)NCCCn2ccnc2)c1`?
NOMO-1 viab: 31

What do the screens show for `Cc1ccc(S(=O)(=O)N(C)C[C@@H]2Oc3c(NS(=O)(=O)c4cccs4)cccc3C(=O)N([C@H](C)CO)C[C@@H]2C)cc1`?
NOMO-1 viab: 9

How did c1csc(-c2nnc(CSc3cccc4cccnc34)o2)c1 do in these assays?
NOMO-1 viab: 112*

Molecules listed so far that contain two or more sulfur atoms:
How did C[C@@H]1CN([C@H](C)CO)C(=O)c2cccc(NS(=O)(=O)c3cccs3)c2O[C@H]1CN(C)C do in these assays?
NOMO-1 viab: 36

What do the screens show for `C[C@H](CO)N1C[C@H](C)[C@H](CN(C)Cc2ccc(C(=O)O)cc2)Oc2ccc(NS(=O)(=O)c3cccs3)cc2CC1=O`?
NOMO-1 viab: 7

Results for CCOC(=O)CSc1nc(N)c2c3c(sc2n1)COC(C)(C)C3 ?
NOMO-1 viab: 105*

Results for C[C@@H]1CN([C@@H](C)CO)C(=O)Cc2cc(NS(=O)(=O)c3cccs3)ccc2O[C@@H]1CN(C)Cc1ccncc1 ?
NOMO-1 viab: 9

What do the screens show for `Cc1ccc(S(=O)(=O)N(C)C[C@@H]2Oc3c(NS(=O)(=O)c4cccs4)cccc3C(=O)N([C@H](C)CO)C[C@@H]2C)cc1`?
NOMO-1 viab: 9

How did c1csc(-c2nnc(CSc3cccc4cccnc34)o2)c1 do in these assays?
NOMO-1 viab: 112*

(cont.)
How did Cc1ccc(S(=O)(=O)N(C)C[C@H]2Oc3c(NC(=O)C4CCOCC4)cccc3C(=O)N([C@@H](C)CO)C[C@@H]2C)cc1 do in these assays?
NOMO-1 viab: 5

Results for C[C@@H]1CCCCO[C@@H](CN(C)C(=O)Nc2cccc3ccccc23)[C@@H](C)CN([C@H](C)CO)C(=O)c2cc(NC(=O)c3ccccc3)ccc2O1 ?
NOMO-1 viab: 55

Results for CCSC1=C(C#N)C(c2cccs2)C(C(=O)Nc2ccccc2)=C(C)N1 (configuration not stated) ?
NOMO-1 viab: 17

What do the screens show for `CCn1c(SCC(=O)Nc2ccccc2OC)nnc1-c1ccncc1`?
NOMO-1 viab: -1

Results for C=CCNC(=O)CSc1nccc(-c2sc3sc(Br)c(C)c3c2C)n1 ?
NOMO-1 viab: 110*

Results for C[C@H]1CN([C@@H](C)CO)C(=O)Cc2cc(NC(=O)Nc3ccccc3)ccc2O[C@H]1CN(C)S(=O)(=O)c1ccccc1 ?
NOMO-1 viab: 39

How did C[C@@H]1CN([C@@H](C)CO)C(=O)c2cc(NC(=O)Cc3ccccc3)ccc2O[C@@H]1CN(C)Cc1ccc2c(c1)OCO2 do in these assays?
NOMO-1 viab: 0

What do the screens show for `C=C1CC[C@@H](O)[C@]2(C)C[C@H]3OC(=O)C(=C)[C@H]3CC12` (some centres not stated)?
NOMO-1 viab: 104*

How did COc1ccc(NC(=O)N(C)C[C@H]2Oc3ccc(NS(=O)(=O)c4ccc(C)cc4)cc3C(=O)N([C@H](C)CO)C[C@H]2C)cc1 do in these assays?
NOMO-1 viab: 20

Results for COc1ccc(NC(=O)Nc2ccc3c(c2)CC(=O)N([C@@H](C)CO)C[C@H](C)[C@H](CN(C)C(=O)Nc2ccc4c(c2)OCO4)O3)cc1 ?
NOMO-1 viab: -14

What do the screens show for `Cc1ccc(S(=O)(=O)Nc2ccc3c(c2)C(=O)N([C@@H](C)CO)C[C@@H](C)[C@@H](CN(C)S(=O)(=O)c2ccc(F)cc2)O3)cc1`?
NOMO-1 viab: 28

Results for COC(=O)c1ccc(C)c(NC(=O)CN(c2ccc(F)cc2)S(C)(=O)=O)c1 ?
NOMO-1 viab: 98*

How did CCOc1c(CNCc2ccccn2)cccc1OC do in these assays?
NOMO-1 viab: 0

What do the screens show for `Cn1nnnc1SCC(=O)Nc1cccc(Cl)c1`?
NOMO-1 viab: -3

How did Cc1noc(C)c1NC(=O)Nc1ccc2c(c1)C(=O)N([C@@H](C)CO)C[C@H](C)[C@@H](CN(C)CC1CCCCC1)O2 do in these assays?
NOMO-1 viab: -19

What do the screens show for `COC(=O)c1ccc(COc2ccc3c(C)cc(=O)oc3c2)o1`?
NOMO-1 viab: 48

How did O=C(COc1ccccc1)Nc1cccc(Oc2ccc3c(c2)C(=O)NC3=O)c1 do in these assays?
NOMO-1 viab: 10

What do the screens show for `COc1ccc(NC(=O)N(C)C[C@@H]2Oc3ccc(NS(=O)(=O)c4ccc(C)cc4)cc3CC(=O)N([C@@H](C)CO)C[C@@H]2C)cc1`?
NOMO-1 viab: 2

What do the screens show for `C[C@H]1CN([C@@H](C)CO)C(=O)Cc2cc(NC(=O)CCC(F)(F)F)ccc2O[C@@H]1CN(C)C(=O)Nc1ccc2c(c1)OCO2`?
NOMO-1 viab: -5

How did CS(=O)(=O)N1CCN(C(=S)NCc2ccco2)CC1 do in these assays?
NOMO-1 viab: 30

How did CNC[C@@H]1Oc2ccc(NC(=O)CCN3CCOCC3)cc2CC(=O)N([C@@H](C)CO)C[C@@H]1C do in these assays?
NOMO-1 viab: 3

How did Cc1noc(C)c1S(=O)(=O)N(C)C[C@H]1Oc2c(NC(=O)c3nc4ccccc4s3)cccc2C(=O)N([C@@H](C)CO)C[C@H]1C do in these assays?
NOMO-1 viab: 11

What do the screens show for `CCCCN1C(=O)NC(C(F)(F)F)(C(F)(F)F)C2=C1CC(C)(C)CC2=O`?
NOMO-1 viab: 24

How did COc1ccc(-c2c(O)c3c(OC)c4c(cc3oc2=O)OC(C)(C)C=C4)cc1 do in these assays?
NOMO-1 viab: 18

How did Cc1ccc(SC(=O)c2c(C)noc2COc2ccccc2)cc1 do in these assays?
NOMO-1 viab: 53

Results for CCOC(=O)C1=C(CSc2ccc(Cl)cc2)NC(=O)NC1c1cc(C)ccc1C (configuration not stated) ?
NOMO-1 viab: 115*

Results for C/C=C(\C)C(=O)OC(/C=C/C(O)C(C)O)C1C=CC(=O)O1 (configuration not stated) ?
NOMO-1 viab: 25

How did C[C@@H]1CN([C@H](C)CO)C(=O)c2cc(NC(=O)Cc3ccccc3)ccc2O[C@@H]1CN(C)Cc1ccc(C(=O)O)cc1 do in these assays?
NOMO-1 viab: 10

Results for COc1ccc(S(=O)(=O)Nc2cccc3c2O[C@H](CN(C)C(=O)Nc2ccc4c(c2)OCO4)[C@@H](C)CN([C@@H](C)CO)C3=O)cc1 ?
NOMO-1 viab: 29

Results for Cc1noc(C)c1NC(=O)Nc1ccc2c(c1)C(=O)N([C@H](C)CO)C[C@H](C)[C@H](CN(C)Cc1ccc(C(F)(F)F)cc1)OCCCC[C@@H](C)O2 ?
NOMO-1 viab: 21

What do the screens show for `Cc1ccc(NC(=O)c2ccco2)c(NC(=O)CN2C(=O)c3ccccc3C2=O)c1`?
NOMO-1 viab: 5

Results for Cc1c(NC(=O)COc2ccc(C(C)(C)C)cc2)cccc1C(=O)O ?
NOMO-1 viab: -2

How did COc1ccc(OCC(=O)Nc2ccc3oc(-c4ccc(C)cc4C)nc3c2)cc1 do in these assays?
NOMO-1 viab: 1

Compound activity deposited in PubChem BioAssay by Broad Institute.
